# Screening results from PubChem.
# Vaccinia mCherry: qHTS for Stage-Specific Inhibitors of Vaccinia Orthopoxvirus: mCherry Reporter Primary qHTS. 310,000 tested, 0.63% active. Vaccinia virus mCherry reporter infection, fluorescence; about a quarter of the inactives have no number. AID 720579, 2013. Potency, µM (series often up to 36.5 µM), for the others: at the top dose activity change, negative = inhibition, hits mostly inhibitors; active = well fitted inhibition curve with a large enough effect; inconclusive = small, poorly fitted or top-dose-only effect; inactive = no such curve, though single readings can be large or run the other way; tested in A549 cells; note: nearly all actives have a fitted effect of over 35% in size; inactives centre near -10
# Vaccinia Venus: qHTS for Stage-Specific Inhibitors of Vaccinia Orthopoxvirus: Venus Reporter Primary qHTS | Potency, µM (highest dose often 36.5 µM), for inactives: at the highest dose activity change, negative = inhibition, most hits filed as inhibitors | Vaccinia virus Venus reporter expression, fluorescence | 330,000 tested, 0.46% active | AID 720580, 2013; active means well fitted inhibition curve with a large enough effect; inconclusive means small, poorly fitted or top-dose-only effect; inactive means no such curve, though single readings can be large or run the other way; tested in A549 cells; note: nearly all actives have a fitted effect of over 30% in size; inactives centre near -10
# * marks the source's active call; other numbers are inactive results; i = inactive; ? = inconclusive; . = no result given; & = joins results of further samples. % is set by controls: 0 for no effect and ±100 for the full control effect; potency is the fitted concentration of half-maximal effect. Random draw from the library; any-hit rate near 0.82%.
SMILES,Vaccinia mCherry,Vaccinia Venus
O=C(NCC1CCCO1)C1CCCN1C(=O)Nc1ccccc1[N+](=O)[O-] (configuration not stated),-28%,-5%
Cc1cccc(OCC(=O)NCCNC(=O)c2cnccn2)c1,-4%,-8%
Cc1ccc(C(O)c2cccnc2)o1 (configuration not stated),0%,0%
CC(NC(=O)CCOc1ccccc1)c1ccccc1 (configuration not stated),.,-20%
C[C@@H]1CCCCO[C@H](CN(C)C(=O)Nc2ccc3c(c2)OCO3)[C@@H](C)CN([C@H](C)CO)C(=O)c2cc(NS(=O)(=O)c3ccc(F)cc3)ccc2O1,-28%,?
COc1ccc2c(c1)c1c(c(=O)n(-c3ccccc3C)c(=O)n1CC(=O)NCc1ccc(C)cc1)n2C,-10%,-16%
CC(C)C(=O)Nc1ncc(Cc2ccccc2Cl)s1,-3%,-14%
COc1ccc(/C=C/c2c([N+](=O)[O-])c(=O)n(C)c(=O)n2C)c(OC)c1,-15%,-13%
COCCCNC(=O)c1ccc(-c2c(C)noc2C)c2ccoc12,23%,4%
O=C(Nc1ccnn1C1CCN(Cc2cc(Cl)ccc2O)CC1)c1cccnc1,-28%,-14%
Cc1ccccc1C(=O)O,-15%,-11%
O=C(O)C(=Cc1ccncc1)c1cccc2ccccc12,i,3%
Cc1nnc2n(C)c(=O)c3c4c(sc3n12)COC(C)(C)C4,-2%,-3%
COc1ccc(-n2ccnc2SCC(=O)Nc2ccc(F)cc2F)cc1,-4%,-20%
COc1ccc(OC)c(C2/C(=C(/O)c3ccccc3)C(=O)C(=O)N2Cc2ccco2)c1 (configuration not stated),-2%,5%

# Filtered by structure, the compounds so far containing a Cl atom
SMILES,Vaccinia mCherry,Vaccinia Venus
CC(C)C(=O)Nc1ncc(Cc2ccccc2Cl)s1,-3%,-14%
O=C(Nc1ccnn1C1CCN(Cc2cc(Cl)ccc2O)CC1)c1cccnc1,-28%,-14%

# Following part
SMILES,Vaccinia mCherry,Vaccinia Venus
NC(=O)C1CCN(C(=O)CN2CCCc3ccccc32)CC1,.,-21%
Cc1cccc(N/C(N)=N/c2nc(C)c(Cc3ccccc3)c(=O)[nH]2)c1,-12%,-5%
Cc1cc(C)cc(NC(=O)COC(=O)c2cc(=O)[nH]c(=O)[nH]2)c1,i,-5%
Cc1ccc2c(c1)c1c(c(=O)n(-c3ccccc3C)c(=O)n1CC(=O)c1ccc(Cl)cc1)n2C,0%,16%
CCc1ccc(-c2nc(CSCC(=O)N3CCN(c4ccc(F)cc4)CC3)c(C)o2)cc1,?,?
COc1cc(OC)c(NS(=O)(=O)c2ccc3c(c2)NC(=O)CCS3)cc1Cl,-18%,-14%
Cc1sc(N(C(=O)CCc2ccccc2)c2ccc(C(=O)O)cc2)nc1-c1ccccc1,-14%,-15%
C[C@@]12C(=O)Nc3ccc(Br)cc3C(=O)N1[C@H]1c3ccccc3OC[C@@H]1[C@@H]2c1ccccc1,-2%,-29%
CC1(C(=O)NCc2cccnc2)CCN1C(=O)Cc1cccs1 (configuration not stated),i,2%
CCCCN(C)C(=O)c1ccc2c(c1)NC(=O)C(CC(C)C)N2 (configuration not stated),-11%,-12%
Cc1ccc(NC(=O)C2CCN(S(=O)(=O)c3ccc4c(c3)CCCC(=O)N4)CC2)cc1N(C)C,-5%&-8%,-11%&-9%
COc1ccc(C(C(=O)NC(C)(C)C)N(C(=O)CNC(=O)c2cccs2)c2ccc(C(C)C)cc2)cc1OC (configuration not stated),-2%,-19%
COc1ccc(NC(=O)Cn2nnc(C(=O)NCc3ccc4c(c3)OCO4)c2N)cc1,-2%,-4%&9%
CC(=O)N(C(C)=O)c1nc(-c2ccccc2)cn1/N=C/c1ccccc1,?,?
Cc1ccc(C(=O)N2CCc3cc(CNC(=O)CSc4ccccc4)ccc32)cc1,-28%,-29%
Cc1ccc(S(=O)(=O)N2C[C@@H]3c4ccccc4N(S(=O)(=O)c4ccc(C)cc4)[C@@H]3[C@@H](C)C2CC(=O)c2ccccc2)cc1 (some centres not stated),-8%,-2%
COCCCNC(=O)CSc1nc2ccccc2c(=O)n1CCc1ccc(S(N)(=O)=O)cc1,i,-14%
O=C(c1ccc2c(c1)CCN2S(=O)(=O)c1ccccc1)N1CCN(c2ccc(F)cc2)CC1,i,-12%
COC(=O)c1sccc1NC(=O)c1c(Cl)cnn1C,i,-14%
CC(=O)c1sc2nsc(SCCN3CCCC3)c2c1N,-25%,-21%
O=C(O)c1ccc(Nc2cccc(F)c2)c([N+](=O)[O-])c1,-22%,-18%
COc1ccc(S(=O)(=O)N2CCOC2CNC(=O)C(=O)NCCCc2ccccc2)cc1 (configuration not stated),-19%,-22%
c1coc(-c2ccnc3ncnn23)c1,0%,-6%
CCN(CC)C(=O)C1=C(C)N(CCCOC)C(=O)C(CC(=O)NCc2cccs2)C1 (configuration not stated),-3%,-3%
COc1ccccc1C(=O)c1ccccc1C(=O)c1ccccc1,-25%,-14%
CCc1nc2ccc(C(=O)NCc3ccc(OC)cc3)cn2c1N(CC)CCOC,6%,-1%
Nc1nc(Br)c2ccccc2c1-c1ccccc1,?,-28%
O=C(NC1CCCC1)c1ccc(Br)o1,-14%,-8%
Cc1cc(S(=O)(=O)Nc2c(C)nn(C)c2C)c(Cl)cc1Cl,-10%,?
Cc1ccc2nc(N3CCN(c4ccccc4)CC3)c(C=O)c(=O)n2c1,i,-8%

# Some of the entries so far, as labelled records.
SMILES: c1coc(-c2ccnc3ncnn23)c1
  Vaccinia mCherry = 0%	Vaccinia Venus = -6%
SMILES: CCN(CC)C(=O)C1=C(C)N(CCCOC)C(=O)C(CC(=O)NCc2cccs2)C1 (configuration not stated)
  Vaccinia mCherry = -3%	Vaccinia Venus = -3%
SMILES: COc1ccccc1C(=O)c1ccccc1C(=O)c1ccccc1
  Vaccinia mCherry = -25%	Vaccinia Venus = -14%
SMILES: CCc1nc2ccc(C(=O)NCc3ccc(OC)cc3)cn2c1N(CC)CCOC
  Vaccinia mCherry = 6%	Vaccinia Venus = -1%

# Additional compounds follow:
SMILES,Vaccinia mCherry,Vaccinia Venus
N=c1c2c3c(sc2nc2n1CCCCC2)CCCCC3,.,-20%
O=C(OCc1ccc(O)cc1)c1c(-c2ccsc2)oc2ccc(N3CCOCC3)cc12,?,?
COC(=O)c1ccc(CN2CCOc3ccc(C(O)c4cccnc4)cc3C2)cc1 (configuration not stated),-18%,-8%
CCOc1ccc(NC(=O)c2cnc(N3CCCCC3)c3ccccc23)cc1,-8%,-11%
O=C(N/N=C\c1cccnc1)c1cc(-c2ccccc2)nc2c(Cl)cccc12,-27%,-8%
Cc1nn(-c2nnc(NCc3ccccc3)nn2)c(C)c1Br,-15%,-23%
COn1c(-c2ccc(Cl)cc2Cl)nc2ncccc21,-14%,-16%
CCOC(=O)OCC(=O)C1(O)CCC2C3CCC4=CC(=O)CCC4(C)C3C(O)CC21C (configuration not stated),i,-6%
Cc1ccc(C(=O)NNC(=O)Cn2ccc(C(F)(F)F)n2)o1,i,-13%
N#C/C(C(=O)NCc1ccco1)=C1/SC=C(c2ccccc2)N1c1ccccc1,i,-14%
O=C(Nc1cc2c(cc1Br)OCCO2)c1cccs1,-25%,-19%
O=S(=O)(c1cccc(Br)c1)N1CCN(CCc2ccccc2)CC1,?,-14%
Nc1ncnc2c1ncn2C1OC(CO)C(O)C1O (configuration not stated),-6%&-28%&-7%,6%&-14%&0%
CCCCc1c(O)nc(SCC(=O)N2CCCCCC2)[nH]c1=O,i,8%
CC(=O)Nc1cccc(NC(=O)c2cccc(-c3ccc(O)cc3)c2)c1,-11%,-3%
CC1CCCCN1C(=O)COC(=O)c1cc(Cl)c2c(c1)OCO2 (configuration not stated),-7%,-7%
Cc1ccc(-n2c(=O)cc(N3CCN(C(=O)c4ccco4)CC3)[nH]c2=O)cc1,i,4%
COc1ccc(NC(=O)c2ccc(NC(=O)c3cccs3)cc2)cc1,-13%,-19%
COc1ccc(S(=O)(=O)Nc2cc(C)cc(C)n2)c2ccccc12,?,-1%
COc1cc(NC(=O)Cn2c(=O)n(Cc3ccccc3Cl)c(=O)c3cc(OC)c(OC)cc32)cc(OC)c1,-19%,-13%
CC(Cc1ccccc1)NC(=O)C1CCCNC1=O (configuration not stated),i,-10%
COc1ccc(S(=O)(=O)n2nc(OC(C)=O)cc2N(C(C)=O)C(C)=O)cc1,i,?
COc1cc2[nH]c(C)c(CCN3CCN(c4ccccc4)CC3)c2cc1OC,-12%,-17%
CCOC(=O)c1cnc2c(C(F)(F)F)cccc2c1Nc1cccc(C(=O)OC)c1,-11%,2%
C=C(C)c1cc2c(ccc3ccc(=O)oc32)o1,-1%,-3%
COC(=O)c1ccc(CN2C(=O)NC3(CCCc4ccccc43)C2=O)o1 (configuration not stated),.,6%
CCc1cc(C(=O)N(CC(C)C)c2c(N)n(Cc3ccccc3)c(=O)[nH]c2=O)sc1C,-9%,-7%
CNC(=O)CCCCCNS(=O)(=O)c1ccc(C)cc1,i,-8%
CSc1nnc(C(C)(C)C)c(=O)n1/N=C/c1ccc(Cl)cc1,-9%,?
Cc1ccccc1NC(=O)C1C2CCC(O2)C1C(=O)O (configuration not stated),i,-9%

# A second format for part of the listing above:
# Fields – Vaccinia mCherry	Vaccinia Venus
> COc1ccc(NC(=O)c2ccc(NC(=O)c3cccs3)cc2)cc1
  -13%	-19%
> COc1cc2[nH]c(C)c(CCN3CCN(c4ccccc4)CC3)c2cc1OC
  -12%	-17%
> CC(Cc1ccccc1)NC(=O)C1CCCNC1=O (configuration not stated)
  i	-10%
> Cc1ccc(-n2c(=O)cc(N3CCN(C(=O)c4ccco4)CC3)[nH]c2=O)cc1
  i	4%
> Cc1ccccc1NC(=O)C1C2CCC(O2)C1C(=O)O (configuration not stated)
  i	-9%
> COC(=O)c1ccc(CN2C(=O)NC3(CCCc4ccccc43)C2=O)o1 (configuration not stated)
  .	6%
> CNC(=O)CCCCCNS(=O)(=O)c1ccc(C)cc1
  i	-8%

# The results go on.
SMILES,Vaccinia mCherry,Vaccinia Venus
COc1ccc(NC(=O)N(C)C[C@H]2OCCCC[C@H](C)Oc3ccc(NS(=O)(=O)c4cn(C)cn4)cc3C(=O)N([C@H](C)CO)C[C@@H]2C)cc1,-9%,-10%
COc1ccccc1CNC(=O)COc1ccccc1C,-9%,8%
CCOC(=O)[C@H]1[C@H]2COc3ccc(OC)cc3[C@@H]2N2C(=O)CN(Cc3ccc(OC)cc3)C(=O)[C@@]12C,i,2%
COc1ccccc1Cc1nc2ccccc2[nH]c1=O,1%,9%
CC(OC(=O)CCC(=O)c1ccc(Cl)s1)C(=O)NC1(C#N)CCCCC1 (configuration not stated),-9%,-11%
O=C(O)COCC(=O)Nc1ccccc1-c1ccccc1,-2%,0%
Cc1c(NC(=O)C(C)OC(=O)CC2CC3CCC2C3)c(=O)n(-c2ccccc2)n1C (configuration not stated),-3%,-4%
CCCn1nnc(NC(=O)COc2ccc(C3CCCCC3)cc2)n1,-23%,-13%
N#CC1=C(N)OC2=C(C(=O)CCC2)C1C1CC=CCC1 (configuration not stated),-19%,-10%
O=C(NCC1CCCO1)c1cc(-c2ccncc2)nc2ccccc12 (configuration not stated),-4%,-2%
O=C(NCc1ccccc1)c1cccc(N2CCCS2(=O)=O)c1,-3%,0%
CN1CCN(c2ccc(CNC[C@H]3O[C@@H](n4cnc5c(=O)[nH]c(N)nc54)[C@H](O)[C@@H]3O)c(F)c2)CC1,15%,-8%
CCCN(CCC)C(=O)Cn1nnc2sc(-c3ccccc3)cc2c1=O,-5%,1%
